Ran importin: RanGTP/importin-beta interaction disruptors – biochemical, CFP-Ran/YFP-importin-beta FRET, RCC1, cell-free, primary screen (AID 434961); hit rate 0.2% among 7,700; CFP-Ran/YFP-importin-beta FRET, cell-free; active compounds read high; inhibition, %;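 active = more than half of the replicate wells above 15% inhibition; inconclusive = exactly half above it; inactive = fewer than half above it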;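 note: 0% = DMSO wells and 100% inhibition = RanGDP control wells on each plate; stock of unstated strength diluted about 400-fold; mean of two wells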
An asterisk follows results filed as active; ? = inconclusive.

Cc1noc(C)c1S(=O)(=O)Nc1ccc2c(c1)CC(=O)N([C@H](C)CO)C[C@@H](C)[C@@H](CN(C)C(=O)Nc1ccc(C(F)(F)F)cc1)O2
  Ran importin: 1.7

C[C@@H]1CN([C@H](C)CO)C(=O)c2cccc(NS(=O)(=O)c3ccc(Cl)cc3)c2O[C@@H]1CN(C)C(=O)Nc1cccc2ccccc12
  Ran importin: -3.3

Cc1noc(C)c1S(=O)(=O)Nc1cccc2c1O[C@@H](CN(C)Cc1ccncc1)[C@@H](C)CN([C@H](C)CO)C2=O
  Ran importin: -2.3

C[C@H](CO)N1C[C@H](C)[C@@H](CN(C)S(=O)(=O)c2cn(C)cn2)Oc2c(NC(=O)c3cnccn3)cccc2C1=O
  Ran importin: 7.3

C[C@H](CO)N1C[C@H](C)[C@@H](CN(C)Cc2ccc3c(c2)OCO3)Oc2ccc(NC(=O)CCCN(C)C)cc2C1=O
  Ran importin: 1.1

CNC[C@@H]1OCCCC[C@H](C)Oc2ccc(N(C)C)cc2C(=O)N([C@@H](C)CO)C[C@@H]1C
  Ran importin: -7.1

Cc1noc(C)c1NC(=O)Nc1ccc2c(c1)CC(=O)N([C@H](C)CO)C[C@H](C)[C@H](CN(C)C(=O)NC(C)C)O2
  Ran importin: -1.8

CC(C)NC(=O)N(C)C[C@H]1OCCCC[C@H](C)Oc2ccc(NC(=O)CCC(F)(F)F)cc2C(=O)N([C@@H](C)CO)C[C@H]1C
  Ran importin: ?

C[C@@H]1CN([C@H](C)CO)C(=O)c2cc(NC(=O)Cc3ccccc3)ccc2O[C@H]1CN(C)C(=O)Nc1ccccc1
  Ran importin: ?

CNC[C@@H]1Oc2ccc(NC(=O)NC(C)C)cc2CC(=O)N([C@H](C)CO)C[C@@H]1C
  Ran importin: -5.5

C[C@H](CO)N1C[C@H](C)[C@@H](CN(C)Cc2ccncc2)Oc2ccc(NC(=O)Nc3ccccc3)cc2C1=O
  Ran importin: 0.6

C[C@H](CO)N1C[C@H](C)[C@@H](CN(C)C(=O)CCC(F)(F)F)OCc2cn(nn2)CCCC1=O
  Ran importin: -0.4

Cc1noc(C)c1S(=O)(=O)Nc1ccc2c(c1)C(=O)N([C@@H](C)CO)C[C@H](C)[C@H](CN(C)Cc1ccncc1)OCCCC[C@H](C)O2
  Ran importin: 2.6

Cc1noc(C)c1NC(=O)Nc1ccc2c(c1)CC(=O)N([C@@H](C)CO)C[C@H](C)[C@@H](CN(C)S(=O)(=O)c1cccs1)O2
  Ran importin: 0.0

CNC[C@@H]1OCCCC[C@@H](C)Oc2ccc(NC(=O)Nc3cccc4ccccc34)cc2C(=O)N([C@H](C)CO)C[C@@H]1C
  Ran importin: -3.3

Cc1noc(C)c1NC(=O)N(C)C[C@@H]1OCCCC[C@H](C)Oc2ccc(NC(=O)c3ccncc3)cc2C(=O)N([C@@H](C)CO)C[C@@H]1C
  Ran importin: ?

COc1ccc(S(=O)(=O)N(C)C[C@@H]2Oc3ccc(NC(=O)CCC(F)(F)F)cc3C(=O)N([C@H](C)CO)C[C@H]2C)cc1
  Ran importin: -1.0

CC(C)NC(=O)N(C)C[C@H]1Oc2ccc(NC(=O)CCN3CCOCC3)cc2CC(=O)N([C@H](C)CO)C[C@@H]1C
  Ran importin: -4.5

C[C@@H]1CCCCO[C@@H](CN(C)S(=O)(=O)c2cccs2)[C@@H](C)CN([C@@H](C)CO)C(=O)c2cc(NS(C)(=O)=O)ccc2O1
  Ran importin: ?

C[C@@H]1CCCCO[C@@H](CN(C)C(=O)Cc2ccccc2)[C@@H](C)CN([C@H](C)CO)C(=O)c2cc(NS(C)(=O)=O)ccc2O1
  Ran importin: 0.3

CNC[C@H]1Oc2c(NC(=O)Nc3c(C)noc3C)cccc2C(=O)N([C@H](C)CO)C[C@H]1C
  Ran importin: 4.8

CNC[C@@H]1Oc2ccc(NC(=O)NC3CCCCC3)cc2C(=O)N([C@@H](C)CO)C[C@H]1C
  Ran importin: 2.5

C[C@@H]1CN([C@H](C)CO)C(=O)Cc2cc(NC(=O)CCN3CCOCC3)ccc2O[C@H]1CN(C)S(=O)(=O)c1ccccc1
  Ran importin: 3.7

CNC[C@@H]1Oc2ccc(NS(=O)(=O)c3cn(C)cn3)cc2CC(=O)N([C@@H](C)CO)C[C@H]1C
  Ran importin: -2.0

C[C@@H]1CN([C@@H](C)CO)C(=O)c2cc(NC(=O)Nc3ccccc3)ccc2O[C@@H](C)CCCCO[C@@H]1CN(C)S(=O)(=O)c1ccc(F)cc1
  Ran importin: 4.2

C[C@@H]1CCCCO[C@H](CN(C)Cc2ccccc2)[C@@H](C)CN([C@@H](C)CO)C(=O)c2cc(NS(=O)(=O)c3ccccc3)ccc2O1
  Ran importin: 1.6

C[C@@H]1CN([C@H](C)CO)C(=O)c2cc(NC(=O)Nc3ccc(F)cc3)ccc2O[C@H]1CN(C)C(=O)NC1CCCCC1
  Ran importin: -1.6

C[C@@H]1CCCCO[C@@H](CN(C)Cc2ccccc2)[C@@H](C)CN([C@@H](C)CO)C(=O)c2cc(NS(=O)(=O)c3ccccc3)ccc2O1
  Ran importin: 0.4

Cc1noc(C)c1S(=O)(=O)N(C)C[C@@H]1Oc2ccc(NC(=O)Nc3ccccc3)cc2CC(=O)N([C@@H](C)CO)C[C@@H]1C
  Ran importin: -3.1

C[C@@H]1CCCCO[C@@H](CN(C)C(=O)c2ccccc2)[C@H](C)CN([C@@H](C)CO)C(=O)c2cc(NS(=O)(=O)c3cn(C)cn3)ccc2O1
  Ran importin: 1.9

C[C@H]1CCCCO[C@@H](CN(C)Cc2ccncc2)[C@@H](C)CN([C@@H](C)CO)C(=O)c2cc(NC(=O)Nc3cccc4ccccc34)ccc2O1
  Ran importin: 3.9

C[C@@H]1CN([C@H](C)CO)C(=O)CCCn2nncc2CO[C@@H]1CN(C)C(=O)Nc1ccccc1F
  Ran importin: -5.5

Cc1noc(C)c1S(=O)(=O)N(C)C[C@H]1OCc2cnnn2CCCC(=O)N([C@H](C)CO)C[C@H]1C
  Ran importin: 1.9

C[C@H](CO)N1C[C@H](C)[C@H](CN(C)Cc2ccc3c(c2)OCO3)Oc2ncc(C#Cc3ccccc3)cc2C1=O
  Ran importin: -1.4

C[C@@H]1CCCCO[C@@H](CN(C)C)[C@H](C)CN([C@H](C)CO)C(=O)c2cc(NS(=O)(=O)c3ccc(Cl)cc3)ccc2O1
  Ran importin: 2.2

C[C@@H]1CN([C@H](C)CO)C(=O)c2cc(NC(=O)Cc3ccccc3)ccc2O[C@H]1CN(C)CC1CC1
  Ran importin: -7.6

C[C@H](CO)N1C[C@H](C)[C@@H](CN(C)C)Oc2c(NS(C)(=O)=O)cccc2C1=O
  Ran importin: -3.9

C[C@@H]1CCCCO[C@@H](CN(C)C)[C@@H](C)CN([C@@H](C)CO)C(=O)c2cc(NC(=O)CCC(F)(F)F)ccc2O1
  Ran importin: 0.2

C[C@H]1CCCCO[C@H](CN(C)C(=O)c2ccccc2)[C@@H](C)CN([C@@H](C)CO)C(=O)c2cc(NC(=O)Nc3ccc4c(c3)OCO4)ccc2O1
  Ran importin: -5.6

CNC[C@H]1OCCCC[C@H](C)Oc2ccc(N(C)C)cc2C(=O)N([C@H](C)CO)C[C@@H]1C
  Ran importin: -5.2

C[C@@H]1CN([C@H](C)CO)C(=O)c2cc(NS(=O)(=O)c3ccc(Cl)cc3)ccc2O[C@H]1CN(C)C(=O)NC1CCCCC1
  Ran importin: 1.6

CNC[C@H]1Oc2ccc(NS(=O)(=O)c3cn(C)cn3)cc2CC(=O)N([C@H](C)CO)C[C@H]1C
  Ran importin: 2.4

C[C@@H]1CN([C@@H](C)CO)C(=O)c2cccc(NC(=O)C3CCOCC3)c2O[C@H]1CN(C)C(=O)Nc1ccc2c(c1)OCO2
  Ran importin: -1.3

C[C@H](CO)N1C[C@H](C)[C@@H](CN(C)Cc2ccc(Cl)c(Cl)c2)Oc2c(NC(=O)c3ccncc3)cccc2C1=O
  Ran importin: 1.5

C[C@H](CO)N1C[C@H](C)[C@H](CN(C)C(=O)Nc2cccc3ccccc23)Oc2ccc(N(C)C)cc2CC1=O
  Ran importin: -2.1

COc1ccccc1CN(C)C[C@H]1OCc2cn(nn2)CCCC(=O)N([C@@H](C)CO)C[C@H]1C
  Ran importin: ?

C[C@H]1CCCCO[C@@H](CN(C)C(=O)Nc2ccc(F)cc2)[C@@H](C)CN([C@@H](C)CO)C(=O)c2cc(NC(=O)c3ccncc3)ccc2O1
  Ran importin: 2.2

Cc1noc(C)c1NC(=O)Nc1cccc2c1O[C@@H](CN(C)C)[C@@H](C)CN([C@@H](C)CO)C2=O
  Ran importin: -1.7

COc1ccccc1S(=O)(=O)N(C)C[C@@H]1OCc2cnnn2CCCC(=O)N([C@H](C)CO)C[C@H]1C
  Ran importin: -2.5

C[C@H](CO)N1C[C@H](C)[C@H](CN(C)C(=O)Nc2ccc(C(F)(F)F)cc2)Oc2c(NS(=O)(=O)c3cn(C)cn3)cccc2C1=O
  Ran importin: 0.9

4 compounds picked at random from those above:
Cc1noc(C)c1NC(=O)Nc1ccc2c(c1)CC(=O)N([C@@H](C)CO)C[C@H](C)[C@@H](CN(C)S(=O)(=O)c1cccs1)O2
  Ran importin: 0.0

CC(C)NC(=O)N(C)C[C@H]1Oc2ccc(NC(=O)CCN3CCOCC3)cc2CC(=O)N([C@H](C)CO)C[C@@H]1C
  Ran importin: -4.5

Cc1noc(C)c1S(=O)(=O)N(C)C[C@@H]1Oc2ccc(NC(=O)Nc3ccccc3)cc2CC(=O)N([C@@H](C)CO)C[C@@H]1C
  Ran importin: -3.1

C[C@H](CO)N1C[C@H](C)[C@@H](CN(C)C(=O)CCC(F)(F)F)OCc2cn(nn2)CCCC1=O
  Ran importin: -0.4

Additional structures:
Cc1cc(C(=O)Nc2cccc3c2O[C@@H](CN(C)C(=O)Nc2c(C)noc2C)[C@H](C)CN([C@H](C)CO)C3=O)n(C)n1
  Ran importin: 1.7

Cc1noc(C)c1NC(=O)N(C)C[C@H]1OCCCC[C@@H](C)Oc2ccc(NC(=O)c3ccncc3)cc2C(=O)N([C@H](C)CO)C[C@@H]1C
  Ran importin: -0.5

C[C@H]1CN([C@@H](C)CO)C(=O)c2cccc(NS(C)(=O)=O)c2O[C@H]1CN(C)S(=O)(=O)c1cn(C)cn1
  Ran importin: 3.0

C[C@@H]1CCCCO[C@H](CN(C)Cc2ccc(C(=O)O)cc2)[C@H](C)CN([C@@H](C)CO)C(=O)c2cc(NC(=O)Nc3ccc(F)cc3)ccc2O1
  Ran importin: 5.8

COc1ccc(CN(C)C[C@H]2Oc3ccc(NC(=O)CCN4CCOCC4)cc3C(=O)N([C@@H](C)CO)C[C@@H]2C)cc1
  Ran importin: ?

C[C@@H]1CN([C@@H](C)CO)C(=O)c2cccc(NC(=O)Nc3ccc4c(c3)OCO4)c2O[C@H]1CN(C)S(=O)(=O)c1ccccc1
  Ran importin: ?

C[C@@H]1CN([C@H](C)CO)C(=O)c2cccc(NC(=O)Nc3ccc(F)cc3)c2O[C@H]1CN(C)C
  Ran importin: -0.1

COc1ccc(NC(=O)Nc2cccc3c2O[C@H](CN(C)S(=O)(=O)c2ccc(Cl)cc2)[C@H](C)CN([C@H](C)CO)C3=O)cc1
  Ran importin: ?

CC(C)NC(=O)N(C)C[C@H]1Oc2ccc(NC(=O)CCC(F)(F)F)cc2C(=O)N([C@H](C)CO)C[C@H]1C
  Ran importin: -4.9

C[C@@H]1CCCCO[C@@H](CN(C)C(=O)Cc2ccccc2)[C@H](C)CN([C@@H](C)CO)C(=O)c2cc(NC(=O)c3ccncc3)ccc2O1
  Ran importin: -2.8

C[C@H](CO)N1C[C@H](C)[C@H](CN(C)C(=O)OCc2ccccc2)OCc2cn(nn2)CCCC1=O
  Ran importin: 1.8

C[C@@H]1CN([C@@H](C)CO)C(=O)c2cc(NC(=O)NC3CCCCC3)ccc2O[C@H]1CN(C)C(=O)NC1CCCCC1
  Ran importin: 2.1

COc1ccc(CN(C)C[C@H]2Oc3ccc(NS(=O)(=O)c4ccc(Cl)cc4)cc3C(=O)N([C@H](C)CO)C[C@H]2C)cc1
  Ran importin: -0.7

COc1ccccc1NC(=O)N(C)C[C@H]1OCc2cnnn2CCCC(=O)N([C@H](C)CO)C[C@@H]1C
  Ran importin: -2.7

COc1ccc(S(=O)(=O)N(C)C[C@@H]2Oc3ccc(NC(=O)Nc4cccc5ccccc45)cc3C(=O)N([C@H](C)CO)C[C@H]2C)cc1
  Ran importin: -1.7

C[C@H]1CN([C@@H](C)CO)C(=O)c2cc(NC(=O)c3ccncc3)ccc2O[C@@H]1CN(C)C(=O)Nc1ccc2c(c1)OCO2
  Ran importin: 3.9

C[C@H](CO)N1C[C@H](C)[C@H](CN(C)Cc2ccc3c(c2)OCO3)Oc2ccc(NC(=O)C3CC3)cc2CC1=O
  Ran importin: 0.3

C[C@H]1CN([C@@H](C)CO)C(=O)c2cc(NC(=O)CCCN(C)C)ccc2O[C@@H]1CN(C)C(=O)Nc1cccc2ccccc12
  Ran importin: -3.2

C[C@@H]1CN([C@@H](C)CO)C(=O)Cc2cc(NC(=O)Nc3ccc4c(c3)OCO4)ccc2O[C@H]1CN(C)C(=O)NC1CCCCC1
  Ran importin: -2.2

Cc1noc(C)c1NC(=O)N(C)C[C@H]1Oc2ccc(NC(=O)Nc3ccc(F)cc3)cc2C(=O)N([C@H](C)CO)C[C@@H]1C
  Ran importin: -4.3

COc1ccc(S(=O)(=O)N(C)C[C@@H]2Oc3c(NC(=O)c4cnccn4)cccc3C(=O)N([C@H](C)CO)C[C@H]2C)cc1
  Ran importin: -0.2

C[C@H](CO)N1C[C@H](C)[C@H](CN(C)Cc2ccc3c(c2)OCO3)Oc2ncc(-c3cc4ccccc4o3)cc2C1=O
  Ran importin: -2.0

C[C@@H]1CN([C@H](C)CO)C(=O)c2cccc(NC(=O)c3cnccn3)c2O[C@H]1CN(C)CC1CC1
  Ran importin: 0.2

C[C@@H]1CN([C@@H](C)CO)C(=O)Cc2cc(NC(=O)CCC(F)(F)F)ccc2O[C@@H]1CN(C)C(=O)Nc1cccc2ccccc12
  Ran importin: 2.1

Cc1noc(C)c1NC(=O)N(C)C[C@@H]1OCCCC[C@@H](C)Oc2ccc(NC(=O)Cc3ccccc3)cc2C(=O)N([C@@H](C)CO)C[C@@H]1C
  Ran importin: 5.0

Not all compounds are listed; rates above refer to the full screens.
